D2 ag – agonists of human D2 dopamine receptor (beta-arrestin) | DiscoveRx PathHunter D2 beta-arrestin, luminescence, 90 min; 100% = 57 uM dopamine signal | AID 624465 | 360,000 compounds, 0.084% hits | activation, % (concentration not given with the values); in the data active = activation above about 40%; inconclusive = about 15% to 40%; inactive = below about 15%; also: the text of the record calls up to 30% inactive
Target sequence (P14416 whole entry, looked up): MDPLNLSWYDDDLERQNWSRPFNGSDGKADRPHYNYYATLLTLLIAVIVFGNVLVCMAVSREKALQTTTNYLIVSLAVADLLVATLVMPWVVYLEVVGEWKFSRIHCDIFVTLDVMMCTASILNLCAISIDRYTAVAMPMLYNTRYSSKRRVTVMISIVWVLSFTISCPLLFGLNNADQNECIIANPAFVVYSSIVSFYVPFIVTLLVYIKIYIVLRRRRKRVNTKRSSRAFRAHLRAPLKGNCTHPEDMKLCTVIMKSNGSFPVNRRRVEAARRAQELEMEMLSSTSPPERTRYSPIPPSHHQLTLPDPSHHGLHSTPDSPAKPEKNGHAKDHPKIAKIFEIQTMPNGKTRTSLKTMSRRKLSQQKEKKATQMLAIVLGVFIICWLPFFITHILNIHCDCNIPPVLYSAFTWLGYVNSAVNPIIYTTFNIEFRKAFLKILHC
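DiscoveRx PathHunter D2 beta-arrestin cells (2,100/well) attached overnight, then compound-stimulated 90 min at 37 C in HBSS/10 mM HEPES/0.1% Tween-20 buffer; beta-galactosidase complementation read by luminescence after 1 h at ambient temperature. Dopamine 57 uM final (EC100) as control.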
gsp antag – gsp mutant antagonism; gsp-mutant cells, cAMP HTRF, 30 min; control for the full effect not named in the record; 340,000 compounds, 0.4% hits; Potency, µM (titrated, usually from 76.9 µM), for the others: at the top dose activity change, negative = inhibition, actives largely listed as inhibitors; AID 624288; active = falling curve of any shape with a large fitted effect; inconclusive = falling curve, mostly with a smaller effect; inactive = flat or rising curve; cell line not stated here;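 also: intracellular cAMP measured with PDE inhibitor Ro 20-1724 present during compound exposure; potency is read from the fitted curve at half-maximal effect; % is scaled to controls: 0 for no effect and ±100 for the full control effect; nearly all actives have a fitted effect of over 65% in size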
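HTRF cAMP read-out (cAMP-d2 plus anti-cAMP antibody-K in lysis buffer, 30 min RT). Before lysis, cells are exposed to compounds with […] for 30 min at 37C in DPBS containing Ca/Mg, BSA and Tween 20.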
Six1-Eya2 inh – Six1/Eya2 interaction inhibition; Q15475+O00167; AlphaScreen GST-Six1/His-Eya2 binding, biochemical; stronger effect = lower value; control for the full effect not named in the record; activity change, % (no concentration beside the values); 360,000 compounds, 0.56% hits; in the data active = activity change below about -65%; inconclusive = about -30% to -65%; inactive = above about -30%; also: % is scaled to controls: 0 for no effect and ±100 for the full control effect
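Homogeneous AlphaScreen proximity assay pairing GST-Six1 with His-tagged Eya2 (added as 5X mix: 250 nM and 500 nM) in 50 mM Tris pH 8.0, 300 mM NaCl, 1 mM TCEP. Glutathione donor and nickel acceptor beads; 1 h, 37 °C, dark.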
gsp agonist – gsp mutant agonism; gsp mutant cells, cAMP HTRF, 30 min; control for the full effect not named in the record; Potency, µM (highest dose often 76.9 µM), for inactives: top-dose activation (cAMP increase), most hits filed as activators; 340,000 compounds, 0.13% hits; AID 624287; active = well fitted activation curve with a large enough effect; inconclusive = small, poorly fitted or top-dose-only effect, or another doubt; inactive = no such curve, though single readings can be large or run the other way; cell line not stated here;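 also: phosphodiesterase inhibitor Ro 20-1724 added with compounds to block cAMP breakdown; potency is read from the fitted curve at half-maximal effect; nearly all actives have a fitted effect of over 60% in size; about a fifth of the inactives were tested at one dose only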
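Cells in DMEM/10% FBS with G418 were pretreated with compounds in DMSO plus […] (300 uM stock) for 30 min at 37C. cAMP was measured by HTRF (cAMP-d2 plus anti-cAMP antibody-K) after 30 min at room temperature.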
CtBP-E1A inh – blocks the CtBP interaction with E1A; 340,000 compounds, 0.49% hits; activity change, % (no concentration beside the values); AlphaScreen GST-E1A/His-CtBP binding, 1536-well; stronger effect = lower value; control for the full effect not named in the record; in the data active means activity change below about -65%; inconclusive means about -30% to -65%; inactive means above about -30%; also: % is scaled to controls: 0 for no effect and ±100 for the full control effect
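AlphaScreen with 125 nM GST-E1A and 125 nM His-CtBP (5X stocks) in Tris pH 8.0, 300 mM NaCl, BSA, Tween 20, TCEP. Compounds preincubated 2 h at 37 deg C, then glutathione donor/nickel acceptor beads added for 1 h at 37 deg C in dark.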
D2 PAM – positive allosteric modulators of human D2 dopamine receptor. potentiation, % (concentration not given with the values). P14416. DiscoveRx D2 beta-arrestin cells, luminescence, 90 min; 100% = 57 uM dopamine signal. 360,000 compounds, 0.23% hits; active = potentiation of 50% or more; inconclusive = 30% to 50%; inactive = 30% or less;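 also: tested on top of an EC20 dose of dopamine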
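PathHunter D2 cells, attached overnight at 37 deg C, received compound in DMSO plus dopamine at EC20 (50 nM final) for 90 min at 37 deg C. Beta-arrestin recruitment was read as luminescence after 1 h with detection reagent at ambient temperature.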
Starred values were filed as active, the others as inactive; ? = inconclusive; nt = no result given; & = joins results of further samples; [ ] = dose if it differs, or a comment.

SMILES	D2 ag	gsp antag	Six1-Eya2 inh	gsp agonist	CtBP-E1A inh	D2 PAM
CCOC(=O)N1CCN(C(=O)COc2ccc(Cl)cc2C)CC1	-0.7	-3%	1	8%	12	22
COc1ccccc1S(=O)(=O)Cc1ccc(C(=O)NCCN(C)C)o1	0.2	6%	-1	20%	4	-2
CCCCN1Cc2cc(C(=O)c3cc(OC)ccc3O)cnc2NC1=O	-4.8	1%	0	-10%	6	-13
C[C@H](CO)N1C[C@H](C)[C@@H](CN(C)CC2CC2)Oc2c(NS(=O)(=O)c3ccc(F)cc3)cccc2C1=O	-2.8	9%	3	nt	0	-3
CCOC(=O)Cn1nc2oc(=O)c(CCN3CCN(c4ccccc4OC)CC3)c(C)c2c1C	-4.1	nt	-8	23%	2	-16
CCOc1ccccc1NC(=O)NCc1ccc2c(c1)OCO2	-9.2	1%	-6	5%	-8	-34
O=C(c1cc(F)c(F)cc1Cl)N1CCN(c2ccc([N+](=O)[O-])c3ncccc23)CC1	-6.0	-26%	4	13%[15.4 µM]	1	-8
NC12CCc3c(no[n+]3[O-])C1(O)CC(c1ccccc1)=[N+]2[O-] (configuration not stated)	0.4	1%	0	17%	9	4
O=C(COc1cccnc1[N+](=O)[O-])Nc1ccc(S(=O)(=O)N2CCOCC2)cc1	-2.0	-12%	-1	19%[15.4 µM]	7	1
Nc1c(C(=O)CSc2nncn2-c2ccccc2)c(=O)[nH]c(=O)n1C1CC1	-5.5	-2%	7	-28%	-3	-4
COc1ccc(S(=O)(=O)NCc2ccco2)cc1NC(=O)c1ccccc1	1.1	-4%	-12	?	-4	-2
CCN1C(=O)[C@@H]2[C@@H]3CN(S(=O)(=O)c4ccc(C)cc4)[C@@H](c4ccccc4)[C@@H]3C(=O)C[C@@H]2C1=O	-1.8	nt	-9	nt	1	-3
COc1ccccc1-n1cnnc1SCC(=O)c1cc(C)n(Cc2cccs2)c1C	-2.7	-5%	-10	27%	9	-6
C=CCn1c(COc2ccc(OC)cc2)nnc1SC(C)C(=O)NC1CC1 (configuration not stated)	-5.2	-1%	1	12%	nt	-12
O=c1[nH]c(C2CCN(S(=O)(=O)c3ccccc3F)CC2)nc2c1nnn2Cc1ccc(F)cc1	-3.1	2%	-10	17%[15.4 µM]	-10	-6
Cc1ccc(NC(=O)CCCNC(=O)c2ccc(Cl)cc2)cc1S(=O)(=O)N1CCOCC1	-3.4	11%	6	4%	-4	-20
CC(C)(C)N=C(NS(=O)(=O)c1cccs1)c1ccccc1	-2.0	10%	9	-52%[inhibitor]	3	-9
O=C(OCc1cn([C@H]2C[C@H](c3ccc(Cl)cc3)N(Cc3cccs3)C[C@@H]2O)nn1)c1ccccc1	5.2	nt	-9	4%	0	nt
CCCNC(=O)C1(C)CCCN(Cc2cc(-c3ccccc3)n(C)n2)C1 (configuration not stated)	-3.6	nt	3	nt	-2	-11
CN1CCCN(C(=O)CC2(CC(=O)O)CCCCC2)CC1	-1.6	4%	-9	0%[15.4 µM]	-6	-2

Reprinted at random: two records from the list, in no set order.
SMILES	D2 ag	gsp antag	Six1-Eya2 inh	gsp agonist	CtBP-E1A inh	D2 PAM
O=C(c1cc(F)c(F)cc1Cl)N1CCN(c2ccc([N+](=O)[O-])c3ncccc23)CC1	-6.0	-26%	4	13%[15.4 µM]	1	-8
COc1ccccc1S(=O)(=O)Cc1ccc(C(=O)NCCN(C)C)o1	0.2	6%	-1	20%	4	-2

The listing continues.
SMILES	D2 ag	gsp antag	Six1-Eya2 inh	gsp agonist	CtBP-E1A inh	D2 PAM
N#CCn1c(CCl)nc2ccccc2c1=O	-0.6	-1%	6	-36%	-12	-10
COc1cc(-c2cnc3c(NC=O)cc(-c4cccc(C(F)(F)F)c4)cn23)cc(OC)c1OC	4.3	nt	-17	nt	0	-1
O=C(NCc1ccco1)NC1CCCCC1	-3.2	-2%[15.4 µM]	4	1%	10	-3
CC(c1cccs1)N(Cc1ccco1)C(=S)Nc1ccccc1Cl (configuration not stated)	1.2	-3%	-16	?	-13	-6
CCOC(=O)c1ccc(NS(=O)C23CC4CC(CC(C4)C2)C3)cc1 (configuration not stated)	0.4	3%	2	?	6	-1
COc1ccc([C@H]2C[C@H](n3cc(C4CC4)nn3)[C@@H](O)CN2C(=O)C2CCCCC2)cc1	-2.0	nt	3	-4%	5	11
O=[N+]([O-])c1cccc(/C=N/Nc2nc(C(Cl)(Cl)Cl)nc3ccccc23)c1	4.5	3%	-5	-2%	-2	18
Cc1ccc(C)c(S(=O)(=O)N2CCCC2CNC(=O)C(=O)Nc2ccccc2)c1 (configuration not stated)	8.5	nt	-8	20%	-22	-12
O=c1c2ccccc2cnn1Cc1ccc(Cl)c(Cl)c1	2.4	-31%	27	-1%[15.4 µM]	-6	-5
C=CC[C@@H](CC(=O)N[C@@H](CO)Cc1ccccc1)C(=O)N[C@H](COC(=O)[C@@H](CC=C)Cc1ccc(F)cc1)Cc1ccccc1	-2.2	7%	3	-24%	nt	-3
COc1ccc(/C=C/c2nnc(NC(=O)c3ccco3)s2)cc1	-0.6	-11%	4	12%	nt	-8
N#CC(=Cc1ccccn1)c1nc(-c2ccc(Cl)cc2)cs1	1.5	nt	-3	?	2	2
COc1ccc(CCNc2nc(=S)[nH]c3cc(OC)c(OC)cc23)cc1OC	-4.5	-27%	-88*	?	nt	-4
O=C(N/N=C\c1ccc(-c2ccc([N+](=O)[O-])cc2)o1)c1ccc2c(c1)OCO2	-0.9	3%	-7	-14%	-4	2
COc1ccc(F)cc1C(=O)C1CCCN(C(=O)c2ccccc2N(C)C)C1 (configuration not stated)	3.1	-3%	19	5%	nt	-10
O=C(Oc1ccc(C(=S)N2CCOCC2)cc1)c1ccc(F)cc1	4.5	15%	-92*	5%[15.4 µM]	0	1
CCOc1cc(NC(=S)NC)c(OCC)cc1NC(=O)c1ccc(OC)cc1	2.6	-2%	-5	-4%[15.4 µM]	14	-7
CC(OC(=O)c1cc(=O)[nH]c2ccccc12)C(=O)Nc1ccccc1F (configuration not stated)	-0.3	16%	-3	-75%[inhibitor]	14	-17
COc1cc(/C=C/C(=O)Oc2coc(CSc3ncccn3)cc2=O)cc(OC)c1OC	-3.0	1%	-3	3%	-10	-8
COc1ccc2c(C=Nc3c(C)n(C)n(-c4ccccc4)c3=O)c(O)n(Cc3ccco3)c(=O)c2c1	2.6&2.1	?	1&-9	?	3&-1	2&0
COc1cc(/C=N/N(C)C2=NS(=O)(=O)c3ccccc32)cc(OC)c1OC	1.7	25%	-83*	6%	-92*	4
CCc1cc(CNC(=O)c2ccc(OC3CCN(C(C)=O)CC3)c(OC)c2)on1	0.9	2%	6	-16%	nt	-2
Cc1csc(NC(=O)CCC(=O)N(CC(=O)NC2CCCCC2)c2ccccc2)n1	-1.5	-6%	10	3%	3	-6
Nc1cc(=O)[nH]c(SCC(=O)Nc2cccc(Cl)c2)n1	-1.9	13%	0	-1%	1	-5
Cc1cccc2nc(-c3ccco3)c(Nc3ccc4c(c3)OCCO4)n12	0.0	-20%	-4	-3%	nt	-13
Cc1ccc(C)c(N2CCN(C(=O)CSc3ccsc3[N+](=O)[O-])CC2)c1	-1.0	-10%	-14	-1%[15.4 µM]	2	-7
C=CCOc1ccc(Cl)cc1C(=O)O	0.6	10%	12	-35%[inhibitor]	-1	8
Cc1ccc(C)c(-c2nnc(NC(=O)c3ccc([N+](=O)[O-])o3)o2)c1	-5.1	-28%	-1	-5%	6	-10
CCOc1ccc(CN2CCNC(=O)C2CC(=O)NCCCC2CCCC2)cc1 (configuration not stated)	2.7	9%	-1	-2%[15.4 µM]	-5	-5
CCc1cccc2c(C(=O)CSc3nnc(-c4ccoc4C)n3C)c[nH]c12	-1.5	3%	-6	-19%	-1	-7
COCCNC(=O)C1(C)CCCN(C(=O)c2ccccc2C(F)(F)F)C1 (configuration not stated)	-3.7	nt	3	nt	4	-4
O=C(N/N=C/c1coc2ccccc2c1=O)c1cccc([N+](=O)[O-])c1	2.2	2%	-1	13%[15.4 µM]	nt	-4
c1ccc(OCCNc2nc(NCC3CC3)nc3ccsc23)cc1	2.9	nt	-9	nt	-3	-14
CS(=O)(=O)N(CC(=O)NC1CCCCC1)Cc1ccc(F)cc1	1.4	5%	8	-29%[15.4 µM]	nt	-4
O=S(=O)(c1ccc(Cl)c(NC(=S)N/N=C/c2c(F)cccc2F)c1)N1CCOCC1	-2.4	-17%	-10	-46%[inhibitor]	-10	-5
Cc1cc(C(=O)CSc2nc3ccc(Cl)cc3[nH]2)c(C)n1CC1CCCO1 (configuration not stated)	-4.0	?	-14	5%	-6	2
Cc1ccc2c(c1)COc1c3ccc(C(=O)N4CCCCC4)cc3nn1-2	-1.0	-7%	2	nt	2	-8
Cc1cc(Cl)ccc1NC(=S)NCc1ccc(S(N)(=O)=O)cc1	-2.4	7%	1	17%	-5	-1
Cn1nc(C(F)(F)F)c(-c2ccc(Br)cc2)c1NC(=O)Nc1ccc(F)cc1F	-4.1	-20%	5	7%[15.4 µM]	-6	-9
Cc1ccc(C2(C)NC(=O)N(CC(=O)N3CCc4ccccc43)C2=O)cc1 (configuration not stated)	0.0	0%	-2	-3%[15.4 µM]	1	-28
Cc1ccc(NC(=O)CCC(=O)OCC(F)(F)C(F)F)cc1	-0.5	5%	-3	-2%	-2	-5
CC(NC(=O)COC(=O)Cn1cnc2ccccc2c1=O)C1CC2CCC1C2 (configuration not stated)	-2.6	-4%	6	-5%	-2	-11

Of the compounds above, 7 contain a nitro group on carbon.
SMILES	D2 ag	gsp antag	Six1-Eya2 inh	gsp agonist	CtBP-E1A inh	D2 PAM
O=C(c1cc(F)c(F)cc1Cl)N1CCN(c2ccc([N+](=O)[O-])c3ncccc23)CC1	-6.0	-26%	4	13%[15.4 µM]	1	-8
O=C(COc1cccnc1[N+](=O)[O-])Nc1ccc(S(=O)(=O)N2CCOCC2)cc1	-2.0	-12%	-1	19%[15.4 µM]	7	1
O=[N+]([O-])c1cccc(/C=N/Nc2nc(C(Cl)(Cl)Cl)nc3ccccc23)c1	4.5	3%	-5	-2%	-2	18
O=C(N/N=C\c1ccc(-c2ccc([N+](=O)[O-])cc2)o1)c1ccc2c(c1)OCO2	-0.9	3%	-7	-14%	-4	2
Cc1ccc(C)c(N2CCN(C(=O)CSc3ccsc3[N+](=O)[O-])CC2)c1	-1.0	-10%	-14	-1%[15.4 µM]	2	-7
Cc1ccc(C)c(-c2nnc(NC(=O)c3ccc([N+](=O)[O-])o3)o2)c1	-5.1	-28%	-1	-5%	6	-10
O=C(N/N=C/c1coc2ccccc2c1=O)c1cccc([N+](=O)[O-])c1	2.2	2%	-1	13%[15.4 µM]	nt	-4

Bioassay records deposited in PubChem by National Center for Advancing Translational Sciences (NCATS).
